Source: PubChem BioAssay (National Center for Advancing Translational Sciences (NCATS))
Marburg entry inh: blocks Marburg virus binding to or entry into cells. Marburg virus pseudotyped entry inhibition, cell reporter; control for the full effect not named in the record; about a third of the inactives were read at about 46 µM. Potency, µM (highest dose often 37.8 µM), for the others: at the highest dose activity change, negative = inhibition, most hits filed as inhibitors. 1.8% of 300,000 active; active = well fitted inhibition curve with a large enough effect; inconclusive = small, poorly fitted or top-dose-only effect, or effect the other way; inactive = flat fitted curve, though single readings scatter; tested in HEK293 cells; about a fifth of its hits are not listed in these tables; also: % is scaled to controls: 0 for no effect and ±100 for the full control effect; luciferase read-out
2A StopGo: lowers the luciferase signal of an FMDV 2A StopGo reporter | human cells with a luciferase reporter of 2A StopGo recoding; control for the full effect not named in the record | Potency, µM (titrated, usually from 57.9 µM), inactives show top-dose signal change, negative = less light | 1.2% of 410,000 active | AID 1159524; active = well fitted falling curve with a large enough effect; inconclusive = small, poorly fitted or top-dose-only effect; inactive = no such curve, though single readings can be large or run the other way; tested in HEK293T cells; also: % is scaled to controls: 0 for no effect and ±100 for the full control effect; nearly all actives have a fitted effect of over 45% in size; luciferase light after 4 h
Cruzain noTriton: blocks cruzain activity in detergent-free assay; P25779; purified cruzain, Z-FR-AMC fluorescence, no detergent; Potency, µM, inactives show max response, negative = inhibition, most hits filed as inhibitors; 2.3% of 200,000 active; active = well fitted curve in the direction sought with a large enough effect; inconclusive = small, poorly fitted or top-dose-only effect, or another doubt; inactive = no such curve, though single readings can be large; an effect the other way counts as inactive or inconclusive;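 also: plate controls were enzyme without inhibitor for no effect and buffer without enzyme for full effect; nearly all actives have a fitted effect of over 40% in size; top concentration of the series not given in the record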
Target sequence (P25779 123-467 limits assumed): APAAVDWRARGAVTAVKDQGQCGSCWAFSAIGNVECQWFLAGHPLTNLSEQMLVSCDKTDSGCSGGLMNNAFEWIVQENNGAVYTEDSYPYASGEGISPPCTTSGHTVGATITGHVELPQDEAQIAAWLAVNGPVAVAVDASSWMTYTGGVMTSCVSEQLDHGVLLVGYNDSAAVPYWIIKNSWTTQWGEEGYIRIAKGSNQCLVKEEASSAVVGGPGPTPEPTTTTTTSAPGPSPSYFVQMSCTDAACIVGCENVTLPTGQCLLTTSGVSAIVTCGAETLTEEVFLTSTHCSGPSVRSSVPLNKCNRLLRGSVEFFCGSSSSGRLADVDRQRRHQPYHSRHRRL
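Purified cruzain at 1.5 nM, pre-incubated 15 min with compound at room temperature in 100 mM sodium acetate pH 5.5, 5 mM DTT, 0.00005% Triton X-100. Reaction started with 2 uM Z-FR-AMC; AMC fluorescence increase over 60 s gives rate.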
Cruzain inh Det: inhibitors of Trypanosoma cruzi cruzain with detergent. purified cruzain, Z-FR-AMC fluorescence, 0.01% Triton. AID 1478. P25779. Potency, µM, for the others: max response, negative = inhibition, most hits filed as inhibitors. 0.43% of 200,000 active; active = well fitted curve in the direction sought with a large enough effect; inconclusive = small, poorly fitted or top-dose-only effect, or another doubt; inactive = no such curve, though single readings can be large; an effect the other way counts as inactive or inconclusive;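 also: plate controls were neutral wells for no effect and buffer without enzyme for full effect; nearly all actives have a fitted effect of over 40% in size; top concentration of the series not given in the record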
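Read-out: AMC fluorescence (360 nm excitation, 450 nm emission), four reads over 2 min, first-to-third difference used. Conditions: cruzain 1.5 nM, Z-FR-AMC 2 uM, pH 5.5 acetate, 5 mM DTT, 0.01% Triton X-100.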
NS1 inh: inhibitors of influenza NS1 protein function | 0.4% of 270,000 active | Potency, µM (titrated, usually from 46.1 µM), inactives show top-dose activity, positive = more growth | S. cerevisiae slowed by influenza A NS1, growth recovery by OD600; also: actives are rising curves; nearly all actives have a fitted effect of over 50% in size
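S. cerevisiae expressing influenza A NS1, grown in glucose, washed, then diluted 1:100 into pH 6.0 -URA galactose medium with 23 nl compound. Growth recovery read as OD600; NS1-free strain serves as control.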
LASV entry inh: blocks Lassa virus binding to or entry into cells; 1.2% of 300,000 active; Potency, µM (titrated, usually from 37.9 µM), without a hit: at the top dose activity change, negative = inhibition, most hits filed as inhibitors; Lassa virus pseudotype entry inhibition, cell reporter; control for the full effect not named in the record; AID 540256; active means well fitted inhibition curve with a large enough effect; inconclusive means small, poorly fitted or top-dose-only effect, or effect the other way; inactive means flat fitted curve, though single readings scatter; tested in HEK293 cells; also: % is scaled to controls: 0 for no effect and ±100 for the full control effect; nearly all actives have a fitted effect of over 50% in size; luciferase read-out
SARS PLP yeast: inhibitors of SARS-CoV papain-like protease in yeast | S. cerevisiae expressing SARS-CoV PLpro, growth rescue; control for the full effect not named in the record | Potency, µM (top dose mostly 32.9 µM), inactives show at the top dose activity, positive = growth rescue | 0.19% of 330,000 active; also: 0% is about no effect; nearly all actives have a fitted effect of over 55% in size; growth read by luminescence after 48 h
RE007 growth inh: less growth of the S. pombe RE007 Vpr strain; S. pombe RE007 Vpr strain, BacTiter-Glo ATP luminescence, 24 h; control for the full effect not named in the record; Potency, µM (top dose mostly 92.2 µM), for inactives: at the top dose activity change, negative = less growth; 0.21% of 360,000 active; active = well fitted falling curve with a large enough effect; inconclusive = small, poorly fitted or top-dose-only effect; inactive = no such curve, though single readings can be large or run the other way;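 also: % is scaled to controls: 0 for no effect and ±100 for the full control effect; nearly all actives have a fitted effect of over 50% in size; the assay follows cell death caused by Vpr and the record does not say whether a fall means rescue or toxicity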
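Fission yeast strain RE007, carrying one chromosomally integrated HIV-1 vpr copy, was seeded at OD 0.01 in PMG+AL medium with 23 nL pinned compound. After 24 h at 30 °C and 99% humidity, viability was read by BacTiter-Glo luminescence.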
An asterisk follows results filed as active; ? = inconclusive; / = no result given; & = joins results of further samples; [ ] = dose if it differs, or a comment. Unless noted, calls follow the shape of the dose curve; as a rule, active means well fitted rising curve with a large enough effect; inconclusive means small, poorly fitted or top-dose-only effect; inactive means no such curve, though single readings can be large or run the other way. Potency is read from the fitted curve at half-maximal effect.

SMILES	Marburg entry inh	2A StopGo	Cruzain noTriton	Cruzain inh Det	NS1 inh	LASV entry inh	SARS PLP yeast	RE007 growth inh
O=S(=O)(Nc1cccnc1)c1ccc(Br)c2ccccc12	/	28%	/	/	10%	/	2%	-19%
COc1ccc(-c2cc(C(=O)Nc3cc(C(F)(F)F)ccc3Cl)no2)cc1	4%[46.1 µM]	8%	-4%	0.5%	/	16%[46.1 µM]	/	/
Cc1ccc(N=C2NC(=O)CS2)cc1	2%	8%	-3%	-5.3%	-7%	16%	1%	21%
c1ccc(CCn2nnnc2C(c2cccs2)N2CCOCC2)cc1 (configuration not stated)	-2%	14%	-4%	3.8%	-2%	10%	2%	-3%
Cc1cc(OCCOc2cccc3cccnc23)cc(C)c1Cl	-27%[46.1 µM]	?	?	-15%	-2%	?	-11%	10%
COc1cccc(NC(=O)COC(=O)c2ccccc2SCC(=O)N2CCCC2)c1	-25%	-23%	/	/	/	13%	-5%	-24%
COc1ccc(Cl)cc1C(=O)N1CCN(c2ccccn2)CC1	-14%	-23%	2%	1.6%	-36%	-26%	4%	-13%
Cc1nc2sc(C(c3ccccc3)N3CCN(C)CC3)c(O)n2n1 (configuration not stated)	/	-16%	/	/	4%	/	2%	10%
COc1cccc(CN2CC(C(=O)N3CCCO3)CCC2=O)c1 (configuration not stated)	15%[46.1 µM]	4%	/	/	10%	4%[46.1 µM]	5%	0%
CCN1C(=O)C(O)(CC(=O)c2c(C)coc2C)c2ccccc21 (configuration not stated)	4%[46.1 µM]	8%	/	/	3%	/	-1%	3%
CCOC(=O)CC(=O)Nc1ccc(C(=O)OCC)cc1	17%	22%	2%	7.5%	-27%	-2%	-7%	24%
CCC(=O)NC(=S)Nc1ccc(NC(=O)c2ccco2)cc1	?	18%	/	/	-1%	1%[46.1 µM]	-2%	-9%

Single values from the entries so far.
COc1ccc(-c2cc(C(=O)Nc3cc(C(F)(F)F)ccc3Cl)no2)cc1 @ Cruzain noTriton: -4%
CCC(=O)NC(=S)Nc1ccc(NC(=O)c2ccco2)cc1 @ 2A StopGo: 18%

Continuation.
SMILES	Marburg entry inh	2A StopGo	Cruzain noTriton	Cruzain inh Det	NS1 inh	LASV entry inh	SARS PLP yeast	RE007 growth inh
CC(C)(C)OC(=O)N1CCC(c2c(C(=O)N3CCOCC3)cnn2-c2cccc(F)c2)CC1	/	-18%	5%	-1.2%	/	?	/	/
O=C(NCCN1CCCCC1)Nc1cccc(Cl)c1Cl	?	4%	/	/	-11%	27%[46.1 µM]	-7%	7%
CC1CCN(C(=O)c2ccc(NC(=O)C3CCCO3)cc2)CC1 (configuration not stated)	?	11%	3%	-2.8%	-8%	6%	0%	11%
Clc1ccccc1C1=Nn2c(nnc2-c2ccco2)SC1	-9%[46.1 µM]	-12%	/	/	-3%	-10%	1%	19%
CC1=C(C(=O)OC2CCCCCC2)C(c2c(F)cccc2Cl)CC(=O)N1 (configuration not stated)	?	?	-3%	-10%	/	0%[46.1 µM]	/	/
N#Cc1ccc(C(=O)NNC(=O)c2ccncc2)cc1	/	-15%	/	/	-1%	/	0%	-18%
Cc1ccc(O)c(NC(=O)c2noc3c2CCCC3)c1	?	0%	-2%	-7.0%	/	?	/	/
Cc1nc2ccc(NC(=O)N3CCSCC3)cc2s1	-11%[46.1 µM]	49%[activator]	1%	0.4%	0%	9%	6%	-11%
Cc1ccccc1NC(=O)c1nc(S(C)(=O)=O)ncc1N(Cc1ccco1)Cc1sccc1C	?	-23%	-13%	-6.8%	/	?	/	/
CC(=NCc1cccc(Cl)c1)c1nc(-c2ccco2)oc1O	14%	-9%	-14%	-14%	0%	0%	-34%	1%
CS(=O)(=O)N(CC(=O)N1CCc2ccccc2C1)Cc1ccc(Cl)cc1	1%	?	?	-4.1%	-7%	-22%	-16%	-14%
CCN1CCN(/C=N/c2nc3c(s2)CCCC3)CC1	5.8µM*	/	-9%	-7.1%	-6%	?	1%	0%
COc1cc(-c2n[nH]c(=S)n2-c2cccc(C(F)(F)F)c2)cc(OC)c1OC	16%	-19%	12%	-2.8%	?	2%	-14%	-12%
CCCCc1nc(NCCN2CCOCC2)c(C#N)c2c1COC(C)(C)C2	-7%&-7%	?	1%	-0.4%	10%	-9%	-2%	0%
CCN(CC(=O)Nc1ccc(OC)cc1)C(=O)c1ccc2c(c1)NC(=O)CS2	16%[46.1 µM]	-18%	/	/	/	11%	0%	-15%
CCN1C(=O)CSc2ccc(C(=O)NCc3ccccc3OC)cc21	-6%	-21%	2%	-0.7%	-12%	-2%	-15%	2%
CC(C)c1nnc(NC(=O)C2CCCN(C(=O)Nc3ccc(F)cc3)C2)s1 (configuration not stated)	2%[46.1 µM]	-1%	/	/	-3%	-5%[46.1 µM]	0%	7%
CCOc1ccc(NC(=O)CN(C)C(=O)C2CC2C)cc1OCC (configuration not stated)	15%	-17%	/	/	/	1%	-2%	-1%
Cc1ccc(C2CC2c2n[nH]c(=S)n2-c2cccc(Cl)c2)cc1 (configuration not stated)	0%	0%	-2%	-8.0%	6%	-18%	7%	5%
c1ccc2c(c1)ncn2CCC1CCCCC1	-28%	-17%	-2%	-3.8%	-56%	1%	-12%	?
CCn1nc(C)c(NC(=O)c2cc(Br)ccc2Cl)c1C	4%	-11%	12%	6.0%	-7%	?	4%	0%
CCOC(=O)N1CCC(NC(=O)CS(=O)(=O)Cc2nc(-c3cccc(OC)c3)oc2C)CC1	-1%&-1%	-25%	?	8.1%	-1%	10%	-6%	13%
COc1c(NC(C)=O)c2c(c([N+](=O)[O-])c1OC)C(=O)OC2	1%	-8%	/	/	/	-6%	/	3%
COc1ccc(CCN(C)C(=O)CN2C(=O)c3ccccc3S2(=O)=O)cc1OC	8%[46.1 µM]	13%	-4%	-2.4%	2%	8%	0%	8%
O=[N+]([O-])c1ccc(COc2cccc(CNc3ccc(Br)cc3)c2)cc1	1%	-16%	?	-4.8%	-10%	27%	?	-6%
CCN(CC)c1c2c(c(C#N)c3nc4ccccc4n13)CCC2	-17%	4%	-2%	0.2%	1%	15%	8%	13%
CCCCSc1nnc2c(n1)OC(c1ccc(Br)s1)Nc1ccccc1-2 (configuration not stated)	15%[46.1 µM]	45%[activator]	1%	-4.9%	/	25%[46.1 µM]	/	/
COC(=O)C1=C(C)N(Cc2ccccc2)C(=NCCc2cccnc2)N[C@H]1c1ccccc1	/	-27%	/	/	-26%&-9%	/	-6%&5%	-22%
Cc1cc(C)cc(NC(=O)c2ccc3c(c2)CCN3S(C)(=O)=O)c1	/	6%	/	/	-3%	/	-2%	8%
COc1cc(/C=N/NC(=O)c2cccnc2)cc(Br)c1O	/	-7%	/	/	10%	/	?	-3%
Cn1c(CNC(=O)CNC(=O)Cc2ccc(F)cc2)cc(=O)n(C)c1=O	/	20%	/	/	1%	/	6%	-4%
CCOC(=O)Cc1csc(NC(=O)c2ccc(C)cc2)n1	-3%[46.1 µM]	-11%	/	/	-4%	/	-1%	-15%
O=C(CCc1ccccc1)NNC(=O)Nc1ccc(Cl)cc1	/	6%	/	/	1%	/	?	-5%
COc1cc(NC(=S)N2CCN(c3ccccn3)CC2)cc(OC)c1	-1%	30%[activator]	-5%	-2.0%	-1%	16%	-28%	-7%
CN1CCN(/C=N/c2c(C#N)cnn2-c2ccccc2)CC1	-5%	-20%	-8%	2.2%	-1%	-6%	3%	1%
CN(C)S(=O)(=O)c1cccc(COc2ncnc3c(Cl)cc(Cl)cc23)c1	?	-25%	/	/	10%	-14%[46.1 µM]	-7%	9%
COCc1ccc([C@@H]2C[C@H]3CN(Cc4cccc(Cl)c4)C(=O)[C@]34CCCN24)o1	/	18%	/	/	5%	/	0%	13%
Cn1c(=O)n(CCc2ccccc2)c2ccccc21	0%	29%	/	/	-20%	14%	2%	4%
COC(=O)C1CC(Cl)CN1c1ncc(C(F)(F)F)cc1Cl (configuration not stated)	-11%[46.1 µM]	-20%	/	/	/	27%[46.1 µM]	0%	7%
O=C1CSC(=S)N1N=C1CCCCCC1	24%	-2%	7%	-3.4%	-1%	9%	16%	17%
CCC/C(O)=C1\C(=O)CC(C)(C)CC1=NCc1ccccc1	-5%[46.1 µM]	?	/	/	-31%	19%[46.1 µM]	-1%	-12%
CC12CCC(=O)N1C(C(=O)OCC(=O)Nc1sccc1C#N)CS2 (configuration not stated)	-11%	22%	-5%	-4.8%	5%	12%	1%	9%
Cc1nn(Cc2ccccc2)c(C)c1NC(=O)CSc1nnc(-c2cc(Cl)ccc2O)n1C	-5%	/	15%	0.2%	-46%	-9%	5%	16%
COC(=O)c1cc(C)sc1NC(=O)C1CC(=O)NN1Cc1ccccc1 (configuration not stated)	-1%	12%	3%	-8.2%	-7%	0%	-14%	-17%
CCOC(=O)CSc1nc(N)c(C#N)c(-c2ccc(OCC)cc2)c1C#N	-21%	-1%	0%	-2.5%	-4%	-16%	-2%	8%
CCn1c(SCC(=O)Nc2ccc(C(C)=O)cc2)nnc1C1CC1	15%[46.1 µM]	19%	/	/	-5%	2%	-2%	0%
COC(=O)CSc1snnc1-c1ccc(Cl)c(Cl)c1	-2%	7%	-3%	-6.5%	-47%	-5%	-4%	20%
O=C(CCCOc1cccc(Br)c1)NCCOc1ccccc1	7%[46.1 µM]	10%	/	/	-41%	/	-9%	2%
NC(Cc1ccccc1)c1nc(-c2ccccc2)no1 (configuration not stated)	/	24%	/	/	?	/	-4%	-6%
CN1CCN(c2ccc(S(=O)(=O)N3CCOCC3)cc2)CC1	3%	0%	/	/	-4%	-11%	-2%	-1%
CSc1cccc(NC(=O)c2c(Cl)cnn2C)c1	26%	34%[activator]	6%	0.3%	-14%	?	/	-30%
COc1ccc(Cl)cc1NC(=O)NCCn1c(=O)oc2ccc(C)cc21	9%[46.1 µM]	1%	?	-1.3%	/	-24%[46.1 µM]	/	/
